FGF22 binding – binders of recombinant human FGF22 by thermal shift; 1.5% of 340,000 active; SYPRO orange fluorescence; percent of sucrose octasulfate shift, DMSO zero; Q9HCT0; calls only at 9.99 µM;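 active = melting point raised past a set limit in the mean and every replicate; inconclusive = no clear call; three in four hits are not shown here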
Target sequence (Q9HCT0 whole entry, looked up): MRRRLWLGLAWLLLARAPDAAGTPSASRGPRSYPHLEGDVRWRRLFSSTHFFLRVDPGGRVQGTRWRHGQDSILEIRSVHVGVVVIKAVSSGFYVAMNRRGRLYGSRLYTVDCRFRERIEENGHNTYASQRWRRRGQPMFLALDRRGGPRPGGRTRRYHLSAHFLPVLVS
ALR H2O2 inh – blocks human ALR sulfhydryl oxidase activity; P55789; purified ALR, DTT oxidation, H2O2 HRP-luminol luminescence; inhibition, % (no concentration beside the values); 3.8% of 290,000 active;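 active = mean and each replicate at 75% or more; inconclusive = only one of the two met; inactive = neither met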;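 also: stock transfer was 7.5 nL into about 7.5 µL; 0% = neutral wells and 100% = wells with inactivated enzyme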
Target sequence (P55789 whole entry, looked up): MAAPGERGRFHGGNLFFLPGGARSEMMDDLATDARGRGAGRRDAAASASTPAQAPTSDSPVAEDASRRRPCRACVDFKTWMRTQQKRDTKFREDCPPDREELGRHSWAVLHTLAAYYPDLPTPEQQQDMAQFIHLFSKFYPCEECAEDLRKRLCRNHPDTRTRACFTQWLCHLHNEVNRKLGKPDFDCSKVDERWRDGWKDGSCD
Beta apoptosis – blocks beta cell apoptosis; protection from apoptosis, % (concentration not given with the values); AID 435005; INS-1E cytokine-induced death, ATP luminescence, 48 h; percent of positive-control rescue, neutral wells zero; 0.8% of 300,000 active;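 active = all replicates at 75% or more, or half of them and the mean; inconclusive = half reach 75% but not the mean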;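 also: 0% = cytokine-treated negative control wells and 100% = positive control rescue; higher means more ATP so stronger rescue from cytokine killing; wells of about 40 µL received 100 nL stock; the first replicate is given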
MLL AF4-AF9 inh – inhibitors of human MLL-AF4/AF9 interaction | P42568 | AlphaScreen, biotin-AF4 peptide binding to FLAG-AF9 | inhibition, % at 10 µM | 0.47% of 350,000 active | AID 651704;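 active = every replicate reaching a set inhibition limit, whatever the replicate mean, cut at about 25% in these data; inconclusive = mean inhibition reaches that limit but some replicates miss it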;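 also: 0% = plate neutral control median and 100% = total signal loss; the record names both 10 and 1 µM as test concentration; the first replicate is given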
Target sequence (P42568 whole entry, looked up): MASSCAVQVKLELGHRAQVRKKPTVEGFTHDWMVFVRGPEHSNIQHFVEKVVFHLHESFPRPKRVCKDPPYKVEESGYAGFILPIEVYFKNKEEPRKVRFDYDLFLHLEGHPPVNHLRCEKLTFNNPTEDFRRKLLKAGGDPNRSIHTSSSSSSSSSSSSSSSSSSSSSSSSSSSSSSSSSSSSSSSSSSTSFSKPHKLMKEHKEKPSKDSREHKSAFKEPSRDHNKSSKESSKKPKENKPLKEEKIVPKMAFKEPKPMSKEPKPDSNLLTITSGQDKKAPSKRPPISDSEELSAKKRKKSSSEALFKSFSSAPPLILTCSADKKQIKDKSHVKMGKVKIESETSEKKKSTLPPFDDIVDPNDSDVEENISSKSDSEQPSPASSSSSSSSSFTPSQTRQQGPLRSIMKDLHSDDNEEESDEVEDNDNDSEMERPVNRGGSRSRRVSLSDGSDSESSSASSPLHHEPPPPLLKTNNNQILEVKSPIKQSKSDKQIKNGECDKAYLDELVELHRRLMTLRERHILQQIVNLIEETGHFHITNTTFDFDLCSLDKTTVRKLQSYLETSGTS
rRNA inh HTS – selective bacterial rRNA inhibition in E. coli; 1.6% of 350,000 active; E. coli WT GFP vs humanized-ribosome RFP mutants, fluorescence, 24 h; active compounds read low; DMSO median 0, no signal -100; GFP signal change (wild-type ribosome), % (test concentration not listed); AID 720706;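 active = significant combined selectivity score with lowered wild-type GFP, culture density cut under 30%, mutant RFP and density less affected; inactive = any of these conditions unmet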; also: one replicate is shown; some compounds called inactive have numbers as strong as hits
RanGTP-Impb inh – disruptors of Ran-importin-beta complex formation – biochemical, FRET, CFP-Ran, YFP-importin-beta, homogeneous, primary screen | inhibition, % (no concentration beside the values) | AID 2216 | 1.1% of 300,000 active | cell-free CFP-Ran/YFP-importin-beta FRET ratio;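 active = most replicates above 15%; inconclusive = exactly half above 15%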;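 also: 0% = DMSO wells and 100% = Ran loaded with GDP instead of GTP; wells of about 40 µL received 100 nL stock; the first replicate is given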
T cruzi inh – blocks replication of Trypanosoma cruzi | T. cruzi beta-gal in NIH3T3, luminescence, 90 h | inhibition, % (no concentration beside the values) | 1.4% of 300,000 active;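 active = mean inhibition across valid replicates above about 55%, limit read from the data; inconclusive = mean below that limit but half or more replicates reach it; inactive = mean below it, under half of replicates reach it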;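 also: signal also drops with host cell toxicity which is not excluded here; 0% = plate median of DMSO wells and 100% = zero luminescence signal; higher percent means less beta-gal luminescence so fewer parasites; stock transfer was 50 nL into about 50 µL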
Calb FLC – affects C. albicans growth with fluconazole | C. albicans CaCi-2 (fluconazole-resistant clinical isolate) + fluconazole, Alamar Blue growth, 48 h | growth inhibition, % (test concentration not listed) | 0.57% of 300,000 active;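 active = most replicates above 75%; inconclusive = exactly half above 75%; inactive = most below 75%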;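 also: all wells also contain fluconazole at 8 µg/ml as a sub-toxic cotreatment; 0% = median of DMSO wells and 100% = median of geldanamycin control wells; wells of about 8 µL received 7.5 nL stock; the first replicate is given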
rRNA inh HTS OD600 – also measured in rRNA inh HTS; calls as there; OD600 change, %; measured here: OD600 growth;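 optical density of the mix in the first replicate; 0 = DMSO median and -100 = no signal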
rRNA inh HTS RFP – second read-out of rRNA inh HTS, no call of its own (marks repeat the call); RFP signal change, %; measured here: RFP humanized mutant strains;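 first replicate; 0 = DMSO median and -100 = no signal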
* hit, by the source's call; i = inactive; ? = inconclusive; nt = not tested or not shown. Some of the compounds tested; count on the stated rates, not on these rows.

The line under a structure holds: FGF22 binding	ALR H2O2 inh	Beta apoptosis	MLL AF4-AF9 inh	rRNA inh HTS	rRNA inh HTS OD600	rRNA inh HTS RFP	RanGTP-Impb inh	T cruzi inh	Calb FLC
- CCOc1cc(-c2nnc(NC(=O)C3=COCCO3)o2)cc(OCC)c1OCC
    i	12	-1	0.7	-5	-5	-2.5	4.6	-6	-8
- O=C1CC(N(C(=O)c2ccco2)c2cccc(Cl)c2)C(=O)N1c1cccc(Cl)c1 (centres undefined)
    nt	-5	0	nt	nt	nt	nt	-1.7	-5	0
- CCCNNC(=O)C(O)(c1cccc(C)c1)c1cccc(C)c1
    nt	10	-10	nt	nt	nt	nt	-1.9	-8	3
- CC(=O)Oc1ccc(NC(=O)Cc2ccccc2)cc1
    nt	20	3	nt	nt	nt	nt	-3.7	-16	-1
- CSCCC(NS(=O)(=O)c1ccc(Cl)cc1)C(=O)O (centres undefined)
    nt	-4	1	-4.4	20	10	-0.6	-1.6	-7	-6
- CCc1ccccc1OCc1nc2ccc(S(=O)(=O)N3CCOCC3)cc2[nH]1
    nt	nt	-7	nt	nt	nt	nt	-2.1	-6	-1
- O=C(NCCCN1CCOCC1)c1ccc(S(=O)(=O)Nc2ccccc2)cc1
    nt	nt	nt	-0.5	8	1	0.8	3.8	-3	2
- COc1ccc2c(CC(=O)Nc3ccc(OC)nc3)coc2c1
    nt	-93	3	0.8	3	1	3.7	-2.3	-13	1
- O=C(c1cccc(F)c1)N1CCC2(CC1)NCCc1[nH]cnc12
    i	nt	-6	1.4	12	18	2.2	-0.7	4	4
- O=C(OCc1nnc(-c2ccccc2)o1)c1ccc([N+](=O)[O-])s1
    i	-27	-4	1.6	-16	-29	-6.2	nt	nt	nt
- CN(C)C(=O)Cn1c(SCC(=O)NCc2ccc3c(c2)OCO3)nc2ccccc21
    nt	-1	1	nt	nt	nt	nt	11	2	13
- C=C(C)n1c(=O)n(Cc2ccccc2C)c2ccccc21
    i	-3	-2	-0.5	-31*	-21*	-3.2*	1.6	7	10
- O=C(CN1CCN(c2ccccn2)CC1)NC1CCCC1
    nt	-1	-8	nt	nt	nt	nt	0.3	2	-2
- CC1=NN(c2ccc(C)cc2C)C(=O)C1C(c1ccccc1)C1C(=O)N(c2ccc(C)cc2C)N=C1C (centres undefined)
    nt	-44	-2	nt	nt	nt	nt	0.8	0	-11
- COC(=O)[C@]1(C)CCC[C@@]2(C)C3CC[C@]4(OC(C)=O)C[C@@]3(CCC21)CC4=O (some centres undefined)
    i	-7	-1	-0.1	-26	-37	-3.7	nt	nt	nt
- CCOc1ccc(C(=O)Nc2c3c(nn2-c2ccccc2)CS(=O)(=O)C3)cc1
    i	-2	-5	1.8	9	4	1.3	0.8	-6	4
- COC(=O)c1ccc(C(=O)OC)c(NC(=S)N2CCN(c3ccccc3)CC2)c1
    nt	2	-1	nt	nt	nt	nt	-1.1	4	5
- CC(=O)Nc1ccc(S(=O)(=O)N(Cc2ccco2)Cc2cc3ccccc3[nH]c2=O)cc1
    i	5	nt	5.5	-17	-18	-0.5	-1.1	18	-2
- CCCCN1C(=O)C(CC(=O)NCC)SC1=Nc1ccccc1 (centres undefined)
    nt	nt	-8	nt	nt	nt	nt	0.9	-2	7
- COc1cccc(CNC(=O)C2CCN(S(=O)(=O)c3ccc4c(c3)CC(C)N4C(C)=O)CC2)c1 (centres undefined)
    i	-6	-2	1.6	0	7	0.4	-2.0	24	-3
- COc1ccc(-c2noc(-c3cccnc3)n2)cc1OC
    i	-2	-3	0.7	-4	-4	1.3	3.8	-10	4
- COc1ccc(NC(=O)/C(C#N)=C/c2ccc(-c3ccccc3C(=O)O)o2)cc1
    i	nt	-2	-0.4	-28	-27	0.4	0.8	-13	-1
- CCOc1ccc(S(=O)(=O)N2CCN(C(=O)c3sccc3C)CC2)cc1
    nt	-14	6	nt	-4	-5	4.1	0.9	7	-4
- CCOC(=O)c1cnc2c(C)cc(Cl)cc2c1NCCCN1CCOCC1
    i	-10	23	-9.7	-31	-26	-2.1	3.5	36	-5
- Nc1n[nH]c(C(F)(F)F)c1-c1ccccc1
    i	-2	-5	-2.3	8	1	1.1	6.0	-18	7
- CCOc1ccc(N(CC(=O)NCc2ccc(OC)cc2)S(C)(=O)=O)cc1
    i	nt	-2	-3.0	23	10	1.7	-2.5	4	10
- C[C@@H]1CC=C[C@H]2[C@H]1C(=O)N(Cc1ccccc1)[C@H]2c1ccc(C(F)(F)F)cc1
    i	nt	-3	-4.1	9	7	-4.3	-4.0	32	-5
- Cc1nnc(N/N=C/c2ccc(Br)cc2)n1N
    i	-58	nt	-3.6	-10	2	-1.9	5.0	0	-4
- O=C(Nc1nsc(-c2ccccc2)n1)c1cccs1
    nt	0	-11	nt	nt	nt	nt	0.3	-1	2
- CCNC(=O)NCc1c(C)c(C)n(Cc2ccccc2)c1-n1cccc1
    i	8	0	-2.1	12	1	5.3	-2.1	-3	-1

The listing continues:
The line under a structure holds: FGF22 binding	ALR H2O2 inh	Beta apoptosis	MLL AF4-AF9 inh	rRNA inh HTS	rRNA inh HTS OD600	rRNA inh HTS RFP	RanGTP-Impb inh	T cruzi inh	Calb FLC
- CN(C)C(CNc1ncnc2sccc12)c1cccs1 (centres undefined)
    i	-12	0	-0.8	16	4	-4.0	0.2	-4	5
- CCOc1cc(/C=N/NC(N)=S)cc(Br)c1OCc1ccccc1C
    nt	2	12	nt	nt	nt	nt	0.1	79*	-26
- COc1cc2c(cc1OC)CN(C(=O)/C=C/c1cccc([N+](=O)[O-])c1)CC2
    i	-3	-6	2.1	2	-4	-2.0	6.7	14	4
- COc1cc(NC(=O)COC(=O)/C=C/c2ccc(Cl)cc2Cl)cc(OC)c1
    nt	3	-8	nt	nt	nt	nt	2.1	30	-2
- O=C1C=C(c2ccc3ccccc3c2)C[C@@H](c2ccc(Cl)cc2)C1
    i	5	0	5.1	3	3	-1.1	nt	nt	nt
- COc1ccc(CNC(=O)c2c[nH]c3c(OC)cc(OC)cc3c2=O)cc1
    i	11	0	-1.1	9	10	1.5	5.4	9	9
- O=C(NCc1cccs1)C1CCN(S(=O)(=O)c2ccc(Cl)cc2)CC1
    i	-10	-4	-0.8	21	13	0.1	3.0	-5	37
- O=C1CC(c2ccccc2Cl)CC(O)=C1C=Nc1ccccc1 (centres undefined)
    nt	-4	-17	nt	nt	nt	nt	1.4	-34	-13
- FC(F)(F)c1cccc(N/N=C/c2ccccc2)c1
    i	11	-3	7.7	-29	1	16	nt	nt	nt
- CC(C)CNC(=O)c1ccccc1-c1ccccc1C(=O)O
    nt	-3	1	nt	nt	nt	nt	0.6	-1	0
- O=C(O)c1ccc(NCc2nc3ccccc3n2Cc2ccccc2)cc1
    i	24	-14	3.4	1	-4	1.4	0.3	7	-1
- O=C(C[n+]1cc(-c2ccccc2)n2c1CCCCC2)c1ccc(Cl)cc1
    i	-26	4	2.0	-40*	-26*	11*	-1.1	38	?
- N#Cc1cnn2c1nc(N1CCOCC1)c1ccccc12
    nt	-12	-10	nt	nt	nt	nt	-1.9	-22	0
- COc1ccc(Nc2ccccc2NC(=O)c2ccccc2Br)cc1
    i	82*	3	13	-23	-56	20	-0.3	11	0
- CC(NC(=O)c1cccc(F)c1)C1CC2CCC1C2 (centres undefined)
    i	-5	-3	1.3	-3	-4	-3.0	-4.0	23	-50
- Nc1nonc1OCCOCCOCCOc1nonc1N
    i	-5	1	2.7	9	8	-2.5	?	4	-11
- O=C(Oc1ccccc1/C=C\C(=O)c1cc2ccccc2o1)c1cccc(F)c1
    nt	10	1	nt	nt	nt	nt	0.8	-28	2
- O=C(NCc1ccco1)C1CC2CCC1C2 (centres undefined)
    i	1	nt	0.6	11	16	5.5	2.7	-8	-15
- Nc1c(C2=NCCO2)nnn1Cc1ccccc1
    nt	2	-6	nt	nt	nt	nt	-2.4	-5	-6
- Cc1cccc(N2CC(C(=O)Nc3nnc(SCC(=O)NCC4CCCO4)s3)CC2=O)c1 (centres undefined)
    i	6	2	-0.9	1	7	2.6	-5.2	-2	1
- O=C1CCCCC(=O)N(c2ccccc2)c2ccccc21
    nt	?	-4	nt	nt	nt	nt	8.5	-2	21
- Cc1ccc(NC(=O)c2ccccc2N(C)S(=O)(=O)c2ccccc2)c(C)c1
    i	-1	1	3.0	-23	-32	-25	25	0	32
- COc1ccc(C2=NNC(=Nc3cc(S(=O)(=O)N(C)C)ccc3C)SC2)c(OC)c1
    i	5	103*	-3.7	16	11	-4.4	-1.8	72*	-5
- CN(c1ccc(C(=O)N2CCCCCC2)cc1)S(=O)(=O)c1ccccc1
    i	nt	34	-1.4	2	-7	-4.7	nt	nt	nt
- Cc1ccc(C)c(S(=O)(=O)N2CCCCC2CCNC(=O)C(=O)NCc2ccncc2)c1 (centres undefined)
    i	-24	4	-12	5	20	-0.1	2.6	13	2
- CC1(C(=O)O)COC(c2ccc(Cl)cc2)OC1 (centres undefined)
    i	nt	-8	1.1	8	7	1.1	0.2	16	8
- O=C(NCCS(=O)(=O)NC1CCCCC1)c1ccc2c(c1)OCO2
    i	0	-1	-1.6	-1	2	-2.9	0.7	-12	-7
- N#Cc1nc(-c2ccco2)oc1N1CCN(Cc2ccccc2)CC1
    nt	-1	-5	nt	nt	nt	nt	3.3	-2	1
- NC(=O)Cc1nc(-c2ccc(F)cc2)cs1
    i	13	3	12	14	1	-1.0	-2.2	-3	9
- CCOC(=O)C1(CCCc2ccccc2)CCN(C(=O)CCn2cncn2)CC1
    i	-31	-2	0.0	-20*	-13*	0.6*	1.8	3	22

Other compounds
The line under a structure holds: FGF22 binding	ALR H2O2 inh	Beta apoptosis	MLL AF4-AF9 inh	rRNA inh HTS	rRNA inh HTS OD600	rRNA inh HTS RFP	RanGTP-Impb inh	T cruzi inh	Calb FLC
- COc1ccc(CCC(=O)N(c2nnc(-c3cccnc3)s2)C(C)C)cc1
    nt	-2	2	5.3	-16	-19	-4.0	-4.5	-8	2
- OC(CNCc1ccccc1)COc1ccccc1 (centres undefined)
    i	-5	-3	nt	15	14	0.8	-2.5	-10	-3
- COCc1ccc([C@@H]2C[C@H]3CN(Cc4cccnc4)C(=O)[C@]34CCCN24)o1
    i	-6	-9	0.9	12	13	2.5	5.5	1	-18
- COc1ccc(C(=O)N[C@H](C(=O)Nc2ccc(S(=O)(=O)N3CCOCC3)cc2)C(C)C)cc1
    i	-6	-4	2.0	-4	-11	0.5	-8.1	18	5
